Assay outcomes: PubChem, several laboratories
VCAM-1 rise: boosters of cytokine-driven VCAM-1 levels – cell-based, plate reader, pooled HUVEC, TNFa stimulus (AID 455); HUVEC TNFa-induced VCAM-1 immunofluorescence, plate reader; numbers were filed only for top-ranked candidate wells; augmentation, % at 5 µM; hit rate 0.2% among 10,000;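 active = a compound raising TNF-alpha-driven VCAM-1 surface staining, with its hit status upheld on visual or statistical review; inactive = the rest, including hits rejected on review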;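 note: 0% = TNFa with vehicle and 100% = strongest image-checked hit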
26S disassembly: blocks ATP-dependent breakdown of the yeast 26S proteasome; anti-FLAG beads, GFP-proteasome disassembly, flow cytometry; inhibition of disassembly, % (concentration not given with the values); hit rate 0.2% among 24,000;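 active = above 40%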;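 note: plate controls were ATP control with full disassembly for no effect and ATP-gamma-S intact proteasomes for full effect; higher percent means more bead fluorescence retained so stronger block of disassembly; stock transfer was 100 nL into about 10 µL; wells with too few beads may also be inconclusive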
The depositor's hits bear a star; i = inactive; . = no result given.

| Molecule | VCAM-1 rise | 26S disassembly |
| --- | --- | --- |
| CCCCNC(=O)c1ccc2c(c1)N(CC)C(=O)CS2 | . | -0.9 |
| COCCCN1Cc2cccc(C(=O)O)c2C1=O | . | 0.1 |
| Cc1cc(=O)oc(C)c1C(=O)NCCC(C)C | . | 0.3 |
| CCCc1[nH]nc2c1C(c1ccc(Br)s1)C(C#N)=C(N)O2 (stereo not given) | . | 0.1 |
| CCS(=O)(=O)N1CCC(C(=O)NCCCOC)CC1 | . | 0.0 |
| O=c1c2ccccc2nc2n1CCCCC2 | . | 1.4 |
| COc1ccc(CCNc2nc(N3CCOCC3)nc(N3CCOCC3)n2)cc1OC | i | 1.4 |
| CCOC(=O)c1ccccc1NC(=O)CSc1nnc(Cc2cccn2C)n1-c1ccc(C)cc1 | . | 0.7 |
| CS(=O)(=O)N1CCCC(C(=O)N2CCOCC2)C1 (stereo not given) | i | -0.4 |
| CCN1CCN(Cc2ccc(NC(=O)Nc3ccc(SC)cc3)cc2)CC1 | i | -0.7 |
| N#CCCN1CCN(S(=O)(=O)c2ccc(S(=O)(=O)N3CCOCC3)cc2)CC1 | . | -0.6 |
| Cc1ccc(N(CC(=O)N2CCN(c3ccc(F)cc3)CC2)S(=O)(=O)c2c(C)nn(C)c2C)cc1 | . | -0.9 |
| Cc1nc2ccccc2c(=O)n1NC(=O)Nc1ccccc1 | i | -1.9 |
| O=C(NCc1ccco1)c1ccc2c(=O)n(CC3CCCO3)c(=S)[nH]c2c1 (stereo not given) | i | -1.0 |
| COc1ccc(C(=O)CN2C3=NCCCN3c3ccccc32)cc1OC | 71.2* | 1.3 |
| COC(=O)c1ccc(CSc2nc3c(c(=O)n2-c2ccc(F)cc2)SCC3)o1 | . | -1.6 |
| Cc1ccc(N(CC(=O)Nc2ccc(C)cn2)S(=O)(=O)c2c(C)nn(C)c2C)cc1 | . | -1.6 |
| CCN(CC)S(=O)(=O)c1ccc2oc(C(=O)Nc3ccc(OC)cc3OC)c(C)c2c1 | . | 1.3 |
| O=C(NC1CCCCC1)C1c2ccccc2C(=O)N1Cc1ccco1 (stereo not given) | . | -0.5 |
| O=C(NCc1cccs1)C1CCN(S(=O)(=O)c2ccc(Br)s2)CC1 | . | 3.0 |
| CCC(=O)Nc1ccc(F)c(Cl)c1 | i | -1.0 |
| Cc1nc2c([nH]1)C1(CCN(Cc3ccccc3)CC1)C(C#N)=C(N)O2 | . | 0.6 |
| Cc1ccc2c(c1)N(C(=O)CCC(=O)N1CCc3ccccc3C1)CCO2 | . | -1.0 |
| C=CCn1c(SCC(=O)Nc2ccc3c(c2)CCC3)nnc1-c1cccs1 | . | -1.4 |
| CCOC(=O)N1CCC(N2Cc3cccc(C(=O)Nc4cc(F)ccc4F)c3C2=O)CC1 | . | 0.9 |
| O=C(COC(=O)CCC(=O)c1cccs1)NCc1ccco1 | i | 1.3 |
| CCOc1ccc(N(CC)S(=O)(=O)c2ccc3c(c2)oc(=O)n3C)cc1 | . | 1.3 |
| O=C(NC1CCCc2ccccc21)C1CCN(S(=O)(=O)c2cccc3nonc23)CC1 (stereo not given) | . | 1.4 |
| Cc1nc2oc3c(NCc4ccccn4)ncnc3c2c2c1COC(C)(C)C2 | i | 3.7 |
| CCOC(=O)N1CCN(C(=O)CN(C)S(=O)(=O)c2ccc(OC)c(OC)c2)CC1 | i | -6.2 |
| CCOC(=O)Nc1ccc(S(=O)(=O)N2CCOCC2)cc1 | . | 1.0 |
| COC(=O)C1=C(C(=O)c2ccccc2)C(c2ccc(OC)c(OC)c2)Nc2nnnn21 (stereo not given) | . | 1.2 |
| COC(=O)Cc1[nH]nc2c1C(C1C=CCCC1)C(C#N)=C(N)O2 (stereo not given) | i | 0.2 |
| CCN1CCN(CCCNC(=O)c2csc3c2CCCCC3)CC1 | . | -1.8 |
| Cc1cccc(CCNC(=O)C2CCCN(S(=O)(=O)c3cccc4nsnc34)C2)c1 (stereo not given) | . | -1.3 |
| Cc1n[nH]c(C)c1S(=O)(=O)N1CCCCCC1 | i | 2.9 |
| CCOC(=O)N1CCN(C(=O)c2cc3cc(Br)ccc3oc2=O)CC1 | . | -1.8 |
| Cc1ccccc1CNc1nc(N)n(-c2ccccc2)n1 | . | -0.3 |
| COc1ccc(OC)c(C2=NOC(C(=O)NCc3ccccn3)C2)c1 (stereo not given) | . | -0.3 |
| CC12CN3CC(C)(CN(C1)C3c1ccc(Cl)cc1Cl)C2=O (stereo not given) | i | 1.1 |
| O=C(O)C1CC(=O)N(c2ccc(OCc3ccccc3Cl)cc2)C1 (stereo not given) | i | 0.3 |
| Cc1cccn2c(=O)c3cc(C(=O)NCc4ccco4)c(=N)n(CCOCCO)c3nc12 | . | -0.3 |
| Cc1ccc2c(c1)NC(=O)C(N1CCOCC1)(C(F)(F)F)O2 (stereo not given) | . | 0.6 |
| Cc1cccc(NCN2C(=O)c3ccncc3C2=O)n1 | . | -0.1 |
| CCN(C(=O)COc1cc(=O)n(CC)c2ccccc12)c1cccc(Cl)c1 | . | 1.8 |
| COc1ccc(-n2c(COc3cccc(C)c3)nnc2SCC(=O)NCc2ccco2)cc1 | i | -1.3 |
| CCn1c(SCC(=O)Nc2ccccc2N2CCCCC2)nc2c1c(=O)n(C)c(=O)n2C | i | 2.8 |
| COC(=O)C1=C(C)N(c2ccc(C(=O)OC)cc2)C(=O)C1 | i | 1.1 |
| c1ccc2c(c1)CCN(CCCNc1nc3ccccc3n3cnnc13)C2 | . | 0.0 |
| CCOC(=O)CC1=C(C#N)C(c2cccnc2)C(C(=O)OCC)=C(N)O1 (stereo not given) | . | -0.9 |

Remaining list, next part:
| Molecule | VCAM-1 rise | 26S disassembly |
| --- | --- | --- |
| COc1cc(NC(=O)c2cc3c(C)nc4ccccc4c3o2)cc(OC)c1OC | . | -5.1 |
| CCOc1ccc(N2C(=O)c3cccnc3C2Nc2ccc(F)cc2)cc1 (stereo not given) | . | 1.3 |
| CCc1c(C(=O)Nc2cc(C)ccc2OC)[nH]c(C)c1C(C)=O | i | 0.9 |
| COC(=O)c1c(NC(=O)CCc2ccc(C)o2)sc(C)c1C | i | 1.0 |
| CCCN(CCC)CCNC(=O)CS(=O)Cc1nc(-c2ccc(C)cc2)oc1C (stereo not given) | . | 2.3 |
| CCOC(=O)N1CCC(NC(=O)Cn2ncc3c4ccccc4n(C)c3c2=O)CC1 | i | 2.3 |
| CCN(CC)CCCNC1CCS(=O)(=O)C1 (stereo not given) | i | -3.5 |
| CCOC(=O)N1CCN(C(=O)CN(c2cccc(C(F)(F)F)c2)S(=O)(=O)c2ccccc2)CC1 | . | 0.8 |
| CCOC(=O)c1c(C)c(C(=O)NCc2ccco2)c(C)n1Cc1ccccc1 | . | 3.2 |
| CC(C)OC(=O)CN1CCN(S(=O)(=O)c2cc(Cl)ccc2Cl)CC1 | . | 1.9 |
| COc1ccccc1N1CCN(C(=O)c2cc(-c3cccc(Cl)c3)on2)CC1 | . | -0.1 |
| CC(=O)N1CCCc2cc(S(=O)(=O)N3CCN(C4CCCCC4)CC3)ccc21 | . | -2.4 |
| COCCCN(Cc1ccccn1)S(=O)(=O)Cc1ccccc1 | i | 2.8 |
| Cc1nnc(SCC(=O)NC(C)(C)C)n1CCc1ccccc1 | i | -0.8 |
| O=C(CN1C(=O)NC2(CCCCC2)C1=O)Nc1ccc(S(=O)(=O)N2CCOCC2)cc1 | i | 0.1 |
| CN(C)c1nc(OCCOC(=O)Nc2ccc(Cl)cc2Cl)nc(N(C)C)n1 | i | -0.7 |
| Cc1cccn2cc(-c3ccccc3)nc12 | i | 0.5 |
| OC(Cn1cccn1)c1ccccc1 (stereo not given) | . | -1.8 |
| O=C(NC1(C(=O)NC2CCCCC2)CCCCC1)c1ccc2c(c1)OCO2 | i | 0.5 |
| CCCCN(CCCNC(=O)c1c(C)cc(=O)oc1C)c1ccccc1 | . | -0.3 |
| COc1cc(OC)cc(C(=O)N2CCN(C(=O)c3ccc(OC)c(OC)c3)CC2)c1 | i | -0.1 |
| O=C(CN1CCN(CCC(=O)Nc2ccccc2F)CC1)Nc1ccc(F)cc1 | . | 2.0 |
| COc1ccc(NC(=O)CN2CCN(CC(=O)Nc3ccc(OC)c(OC)c3)CC2)cc1 | . | -0.7 |
| CCN1CCCC1CNC(=O)CCc1nc(-c2ccc(C)cc2)no1 (stereo not given) | . | 2.2 |
| COc1ccccc1-c1nnc(SCC(=O)NC2CCCCC2)o1 | i | -1.1 |
| CCN1CCN(C(=O)CS(=O)(=O)Cc2nc(-c3ccc(C)cc3)oc2C)CC1 | . | 0.0 |
| COc1ccc(N2C(=O)C(CC(=O)Nc3ccccc3)N(Cc3ccc4c(c3)OCO4)C2=O)cc1 (stereo not given) | . | 0.7 |
| Cc1ccc(NC(=O)CSc2nnc(NC(=O)CN3CCOCC3)s2)cc1 | i | -0.7 |
| CCC(=O)Nc1ccc(NC(=O)CSc2nnnn2C(C)C)cc1 | i | 3.3 |
| COc1ccc(-n2cc(-c3ccccc3)c3c(N4CCN(CCO)CC4)ncnc32)cc1 | i | 0.5 |
| Cc1nc2c(ccc3nc(NC(=O)c4ccc(S(=O)(=O)N(C)C)cc4)sc32)s1 | . | -0.3 |
| COc1cc(OC)c(C(=O)Nc2ccc(N(C)C)cc2)cc1OC | i | -1.8 |
| C/C(N)=C(/C#N)C(=O)CSc1nnc(Nc2c(C)cccc2C)s1 | i | 3.2 |
| COc1ccc(NC(=O)C2C(=O)NC3(C)CC2c2ccccc2O3)cc1 (stereo not given) | . | -2.1 |
| CCOC(=O)c1ccc(NC(=O)CSc2n[nH]c(-c3ccncc3)n2)cc1 | i | -0.7 |
| CCCS(=O)(=O)n1nc(-c2ccc(OC)cc2OC)cc1N | . | 0.9 |
| COc1cc(C2C(=O)N(C3CCCC3)CC(=O)N2Cc2ccco2)ccc1OC(C)C (stereo not given) | . | -0.4 |
| COCC(C)NC(=O)c1cc(-c2cccc(OC)c2)on1 (stereo not given) | . | -2.2 |
| CCCCCC1NC(=O)NC1CCCCCC(=O)O (stereo not given) | i | -0.7 |
| CC(C)c1nc(N2CCN(C(=O)c3ccco3)CC2)c2c3c(sc2n1)CCCC3 | i | -0.7 |
| CCOC(=O)Cn1nc(-c2ccc(Cl)cc2)cc1N | i | -0.1 |
| Cn1c(=O)oc2cc(S(=O)(=O)NCCCN3CCCC3=O)ccc21 | . | 0.9 |
| CCOc1cccc2cc(C(=O)N3CCN(C/C=C/c4ccccc4)CC3)c(=O)oc12 | i | 11.2 |
| O=C(CCN1C(=O)C2C3C=CC(C3)C2C1=O)N1CCN(c2ccccc2F)CC1 (stereo not given) | . | 1.4 |
| CCN(Cc1cc2cc(OC)ccc2[nH]c1=O)C(=O)Cc1ccc(OC)cc1 | i | -0.7 |
| Cc1cc(C(=O)CSc2nnc(-c3ccccc3)n2C)c(C)n1C | i | -1.7 |
| COc1ccc(N2CCN(C(=O)c3cn(C4CCCC4)c(=O)c4c3c3ccccc3n4C)CC2)cc1 | . | 0.1 |
| CC1CCN(CCc2nc3cc(NS(=O)(=O)c4ccc(F)cc4)ccc3n2C)CC1 | i | 2.9 |
| CCn1cc(C(=O)N(CCCN2CCOCC2)Cc2ccco2)c(=O)c2ccc(C)nc21 | . | -1.6 |
| O=S(=O)(NCc1cn2ccsc2n1)c1ccc2c(c1)OCCO2 | i | -0.6 |

Next part
| Molecule | VCAM-1 rise | 26S disassembly |
| --- | --- | --- |
| CN1CCN(CC(=O)N2c3ccccc3C(=O)Nc3cccnc32)CC1 | i | -0.6 |
| CCOC(=O)c1ccc(NC(=O)CSc2nnc(CNC(=O)c3ccccc3F)o2)cc1 | . | 0.1 |
| CCC(C)(C(=O)NC1CCCC1)N(Cc1cccs1)C(=O)Cc1cccs1 (stereo not given) | i | 0.4 |
| N#CCCn1ccc(NC(=O)c2ccc(Cl)cc2)n1 | i | 0.2 |
| CCCn1c(SCC(=O)NC(C)(C)C)nnc1C(C)C | i | -0.2 |
| Cn1c2ccccc2c2c(C(=O)N3CCN(c4ccccn4)CC3)cn(C3CCCC3)c(=O)c21 | . | -0.5 |
| COc1cccc(-c2nc(CS(=O)(=O)CC(=O)NCc3ccc(Cl)cc3)c(C)o2)c1 | i | -0.4 |
| COc1ccc(-c2cc3ccccc3n2CC(O)CN2CCN(CCO)CC2)cc1 (stereo not given) | . | -1.1 |
| O=C(NCCC1=CCCCC1)C1CCN(S(=O)(=O)c2cccc3cccnc23)CC1 | i | -0.4 |
| CC(Oc1ccccc1)C(=O)Nc1ccc(S(=O)(=O)NCC2CCCO2)cc1 (stereo not given) | i | -1.6 |
| Cc1nn(-c2ccccc2)c(Cl)c1C1C(C#N)=C(N)OC2=C1C(=O)CC(C)(C)C2 (stereo not given) | i | 0.0 |
| COC(=O)C(CCSC)NC(=O)Cn1ncc2c(=O)oc3ccc(C)cc3c21 (stereo not given) | . | 0.4 |
| Cc1ccccc1NS(=O)(=O)c1ccc(NC(=O)c2ccco2)cc1 | i | 1.8 |
| Cc1ccc(Oc2ccc(S(=O)(=O)N3CCOCC3)cc2C(N)=O)c(-n2nc3ccccc3n2)c1 | . | -0.1 |
| Nc1nc(-n2cnnc2)nn1-c1ccccc1 | i | -0.8 |
| CCOC(=O)C1=C(C)N=C2SC(C)C(=O)N2C1c1cccc(F)c1 (stereo not given) | i | -0.8 |
| Cc1cc(C)cc(N(CC(=O)Nc2cccc(C)n2)S(=O)(=O)c2c(C)noc2C)c1 | i | -0.8 |
| O=C(CCn1cccc1)NCc1ccccc1 | . | 0.0 |
| CCCN(CCC)CCCNC(=O)c1cn(CCOC)c(=O)c2c1c1ccccc1n2C | . | -0.8 |
| CCCCCNC(=O)CCCCn1c(=O)[nH]c2cc(OCC)c(OCC)cc2c1=O | . | 0.6 |

This is a subset. The share of hits here may be higher or lower than overall.
